# 2A firefly: Primary qHTS Assay for Foot and Mouth Disease Virus Antivirals against NCGC Sytravon and CBC Compound Libraries: Firefly Luciferase Signal. HEK cells with a luciferase reporter of 2A StopGo recoding. Potency, µM (highest dose often 57.5 µM), for the others: at the highest dose signal change, negative = less light. 120,000 compounds, 0.23% hits; active = well fitted falling curve with a large enough effect; inconclusive = small, poorly fitted or top-dose-only effect; inactive = no such curve, though single readings can be large or run the other way; also: nearly all actives have a fitted effect of over 60% in size; overnight with compound
# StopGo RLuc: Primary qHTS Assay for Foot and Mouth Disease Virus Antivirals against NCGC Sytravon and CBC Compound Libraries: Renilla Luciferase Signal. HEK cells with a luciferase reporter of 2A StopGo recoding. Potency, µM (top dose mostly 57.5 µM), for inactives: at the top dose signal change, negative = less light. 120,000 compounds, 0.32% hits. AID 1745857, 2022; active means well fitted falling curve with a large enough effect; inconclusive means small, poorly fitted or top-dose-only effect; inactive means no such curve, though single readings can be large or run the other way; also: nearly all actives have a fitted effect of over 55% in size; overnight with compound
# The depositor's hits bear a star; ? = inconclusive; & = joins results of further samples; [ ] = remark or other dose. % is scaled to controls: 0 for no effect and ±100 for the full control effect; potency is read from the fitted curve at half-maximal effect.
# The line under a structure holds: 2A firefly	StopGo RLuc
CCc1nn2c(=O)cc(COC(=O)c3ccccc3NC(=O)COc3ccc(C)c(C)c3)nc2s1
 : -9.3%	-10.3%
CCCCN1C(=O)C(=O)N(Cc2ncc(-c3ccc(F)cc3)o2)C1=O
 : 31.3%[activator]	7.2%
CCN(CC)S(=O)(=O)c1ccc(Cl)c(C(=O)Nc2cccc3cccnc23)c1
 : -23.5%	-3.8%
COc1cc(NC(=O)CSc2ncccc2C(=O)OC(C)C)cc(OC)c1
 : 9.4%	-0.4%
CCCCn1nnnc1CSc1nnc(-c2ccccc2)n1-c1ccccc1
 : -4.3%	6.9%
COc1cccc(CCNC(=O)CC(C)(C)C)c1
 : 6.1%	118.5%[activator]
C=CCS(=O)(=O)c1ccc2ccccc2c1
 : 0.0%	-25.6%
O=C(NCc1cccnc1)N1CCN(S(=O)(=O)c2cc(Cl)ccc2Cl)CC1
 : -26.9%	-22.2%
CCOC(=O)c1noc2nc(C)nc(Nc3cccc(C(F)(F)F)c3)c12
 : 6.3%	5.6%
CCN(CC)C(=O)CSc1nc(-c2ccc(C)cc2)nc2c1COC(C)(C)C2
 : -13.4%	-9.4%
Cc1c(C(=O)N(C)c2cccc(C(F)(F)F)c2)sc2nc3n(c(=O)c12)CCCCC3
 : 3.2%	9.8%
CCc1ccccc1NC(=O)N(C)Cc1nc(-c2ccccc2C)oc1C
 : 13.4%	16.6%
CC(C)c1cnc2c(c1SCC(=O)Nc1ccc(C(N)=O)cc1)c(=O)n(C)c(=O)n2C
 : -16.6%	9.4%
Cc1ccc(CN(C(=O)c2cccc(C#N)c2)C2CC2)cc1
 : -1.1%	19.7%
Cc1ccc(Cl)cc1N1CCN(S(=O)(=O)c2cn(C)c(C)n2)CC1
 : 13.2%	-3.5%
CCOC(=O)c1c(NC(=O)C(C)Sc2cn(CCNC(=O)c3c(F)cccc3F)c3ccccc23)sc2c1CCC2 (stereo not drawn)
 : -7.2%	7.9%
COc1ccc(OC)c(CNC(=O)CCc2c(C)nc3c(c2C)c(=O)n(C)c(=O)n3C)c1
 : -35.7%	-13.1%
Cc1ccc2c(CSc3nnnn3-c3ccc(O)cc3)cc(=O)oc2c1C
 : ?	?
NC(=O)CCN1CCN(S(=O)(=O)c2ccc(Br)cc2Cl)CC1
 : -6.0%	-8.2%
COc1cc(NS(=O)(=O)c2cccc(Cl)c2)cc2sc(NC(=O)c3ccccc3)nc12
 : -16.6%	160.7%[activator]
COc1cc2c(cc1OC)-c1c(c(C(=O)Nc3cccnc3)nn1-c1ccccc1)C2
 : 27.3%	29.9%
Cc1ccc(SC(C)C(=O)NC(C(C)C)C(C)C)cc1 (stereo not drawn)
 : -9.6%	-2.2%
Cc1ccccc1CNC(=O)CCC(=O)N1CC2CCCN2c2ccccc21 (stereo not drawn)
 : 6.0%	18.0%
Cc1ccc(CNC(=O)N2CCCC(C(F)(F)F)C2)cc1 (stereo not drawn)
 : 54.5%[activator]	14.7%
COc1ccc(OCC(=O)Nc2ccc(-c3nc4ccc(C)cc4o3)cc2)cc1
 : 0.0%	11.9%
O=C(NC1CCCCCC1)C1c2ccccc2C(=O)N1Cc1ccccc1Cl (stereo not drawn)
 : -9.4%	8.3%
Cc1ccc(S(=O)Cc2nc(-c3ccc(C(=O)NCCCN4CCOCC4)cc3)oc2C)cc1 (stereo not drawn)
 : 11.7%	8.6%
CCC(O)CCCCCCCC(O)CC (stereo not drawn)
 : 0.0%	6.8%
COCCCNC(=O)c1cn(CCOC)c(=O)c2c1c1ccccc1n2C
 : 1.0%	-3.4%
Cc1cccc(Cc2sc(N)nc2C)c1
 : 18.3%	10.0%

# (further entries)
# The line under a structure holds: 2A firefly	StopGo RLuc
CC(C)c1ccc(CNC(=O)c2ccc(N3CCCC3)c(NC(=O)NCc3ccc(F)cc3)c2)cc1
 : -9.2%	-5.9%
Cc1ccc(S(=O)(=O)NCC2CCC(C(=O)NCCc3ccccc3)CC2)cc1 (stereo not drawn)
 : 0.0%&11.7%	13.7%&11.5%
Cc1nc(-c2ccc(F)cc2)c(CC(=O)N2CCN(S(=O)(=O)c3cccc(Cl)c3)CC2)s1
 : -3.8%	18.9%
CN(C)C(=O)c1ccc2oc(CN3CCN(C(=O)Nc4ccc(F)cc4F)CC3)nc2c1
 : 56.7%[activator]	5.4%
CC(C)C(=O)Nc1cccc(C2CN3CCSC3=N2)c1 (stereo not drawn)
 : -15.5%	-10.9%
Cc1ccccc1C(=O)Nc1ccc(NC(=O)c2cccs2)cc1
 : -4.1%	-4.6%
O=C(Cn1c(=O)nc(-c2ccccc2)c2ccccc21)NCCCc1ccccc1
 : -8.5%	-2.8%
CCOC(=O)c1c(NC(=O)CSc2cn(CCNC(=O)c3ccc(OC)cc3)c3ccccc23)sc2c1CCC2
 : 7.4%	9.5%
COc1ccc(-c2ocnc2C(=O)Nc2ccccc2C)cc1OC
 : 50.1%[activator]	2.1%
CCOC(=O)CC(NC(=O)Cn1nnc(-c2ccc(C(F)(F)F)cc2)n1)c1ccccc1Cl (stereo not drawn)
 : -25.6%	-17.0%
O=C1Cc2cc(Cl)ccc2N1
 : -11.1%[11.5 µM]	-8.5%
Cc1ccc(Cn2c(C(=O)O)c(CNCc3ccc(OC(C)C)cc3)c3ccc(C)cc32)cc1
 : ?	-17.5%
CCOc1ccc(N2C(=O)c3n[nH]c(-c4cccs4)c3C2c2cccc(F)c2)cc1 (stereo not drawn)
 : -18.7%	-2.9%
O=C(NCCc1csc2nc(-c3ccccc3F)nn12)C(=O)Nc1cc(F)ccc1F
 : -14.9%	-17.2%
Cc1cccc(-c2ocnc2C(=O)NCC(C)c2ccccc2)c1 (stereo not drawn)
 : 28.3%	2.6%
Cc1cccc(CCn2c(=O)c3ccccc3n(CC(=O)Nc3ccccc3F)c2=O)c1
 : -2.9%	-8.0%
Cc1ccc2nc(-c3cccnc3)cc(C(=O)NCCc3ccccc3)c2c1
 : 0.0%	40.6%[activator]
O=C(NCc1ccc(Cl)cc1)c1cc(S(=O)(=O)N2CCCCC2)c[nH]1
 : -18.0%	91.8%[activator]
O=C(Nc1cccc2ncccc12)C1CCCN(S(=O)(=O)c2ccc(F)cc2)C1 (stereo not drawn)
 : -1.7%	-4.1%
C/C(CC(C)C)=N\NC(=O)c1ccc(C)c(C)c1
 : 0.0%	-8.5%[1.06 µM]
CCOC(=O)c1cccc(NC(=O)CC(c2cc(OC)c(OC)c(OC)c2)N2Cc3ccccc3C2=O)c1 (stereo not drawn)
 : 1.2%	83.1%[activator]
CCCCOC(=O)C(C)Oc1ccc2c(=O)c(Oc3ccc(C(C)(C)C)cc3)coc2c1 (stereo not drawn)
 : 0.0%	6.6%
Cc1ccc(NC(=O)Cn2nc(-c3ccc(F)cc3)c3cnc4ccc(C)cc4c32)cc1
 : -6.2%	-5.2%
Cc1ccc(NC(=O)CSc2nnc(-c3cc4occc4n3C)n2-c2ccccc2C)cc1F
 : -25.8%	-9.7%
COc1ccccc1N1CCN(C(=O)c2cc(S(=O)(=O)N3CCC(C)CC3)cn2C)CC1
 : -16.0%	28.2%
CCc1ccc(NC(=O)CCc2nnc3ccc(NCc4cccnc4)nn23)cc1
 : -3.1%	0.6%
O=C(CCCc1nc(-c2ccc(Cl)cc2)no1)NCc1ccco1
 : -11.7%	-12.0%
Cc1ccccc1CNC(=O)COc1ccc(-c2nc(C(C)C)no2)cc1
 : 12.2%	?
CNC(=O)c1ccc(Nc2nnc(-c3ccc(C)c(S(=O)(=O)N4CCCCC4)c3)c3ccccc23)cc1
 : -3.4%	17.1%
COc1cc(CN(C(=O)COc2ccccc2C)c2ccccn2)cc(OC)c1OC
 : 6.8%	33.4%[activator]

# The results go on.
# The line under a structure holds: 2A firefly	StopGo RLuc
O=C(OCc1cccc(COC(=O)c2ccc(OCC3CCCO3)cc2)c1)c1ccc(OCC2CCCO2)cc1 (stereo not drawn)
 : ?	11.6%
CSCCC(=O)NCc1cccs1
 : 0.0%	10.3%
O=C(c1ccc2c(c1)N(Cc1ccc(Cl)cc1)C(=O)c1ccccc1S2(=O)=O)N1CCCC1
 : -2.0%	198.7%[activator]
CCn1nnc2cc(C(=O)Nc3cccc(Cl)c3)ccc21
 : 157.3%[activator]	5.5%
CCOc1ccc(NC(=O)CCc2c(C)nc3nc(C)nn3c2C)cc1
 : -27.1%	-10.5%
Cc1ccc(C)c(NC(=O)Cn2c(=O)n(Cc3cccs3)c(=O)c3cccnc32)c1
 : -12.2%	-8.0%
Cn1c2ccccc2c2cnn(CC(=O)NCCCN3CCN(c4ccccc4F)CC3)c(=O)c21
 : -16.9%	-11.7%
COc1cc(NC(=O)CC2C(=O)OCCN2Cc2ccccc2)cc(OC)c1 (stereo not drawn)
 : -2.9%	-1.6%
N#Cc1nc(COc2ccc(-c3ccccc3)cc2)oc1NCCN1CCOCC1
 : -2.8%	?
O=C(NCc1ccc(F)cc1)c1ccc(CSc2nc3ccncc3n2Cc2ccc(F)cc2)cc1
 : 11.7%	-9.8%
CCc1ccccc1NC(=O)C1CC1
 : -17.6%	-9.7%
CCc1ccc(C2c3c(oc4ccc(C)cc4c3=O)C(=O)N2c2nc(C)c(C)s2)cc1 (stereo not drawn)
 : -13.4%	10.9%
CCOC(=O)c1c(C)nc2nc(-c3cccnc3)nn2c1C
 : 137.0%[activator]	-6.5%
CC(=O)c1ccc(NS(=O)(=O)c2cc(-c3cnc(C4CC4)o3)ccc2C)cc1
 : 32.1%[activator]	348.5%[activator]
O=C(NCc1cccc(Cl)c1)c1ccc2ccccc2n1
 : 33.1%	69.8%[activator]
COc1ccccc1CC(C#N)C(=O)Nc1cc(C)cc(C)c1 (stereo not drawn)
 : ?	?
N#CC1(C(N)=O)C(c2ccccc2Cl)C1(C#N)C(N)=O (stereo not drawn)
 : 3.0%	-0.3%
COC(=O)c1ccc(NC(=O)Cn2ccn3nc(-c4ccc(OC)cc4)cc3c2=O)cc1
 : 96.7%[activator]	3.0%
COCCCNC(=O)Cn1c(=O)n(-c2ccccc2)c(=O)c2c1c1cc(OC)ccc1n2C
 : -9.0%	-15.1%
CC(=O)c1cccc(-n2c(=O)c3c4c(sc3n(CC(=O)c3ccc(Cl)cc3)c2=O)CN(C(C)=O)CC4)c1
 : -17.1%	-12.9%
COC(=O)c1cccc(Nc2c(-c3ccc(SC)cc3)nc3nc[nH]n23)c1
 : 167.0%[activator]	53.4%[activator]
COc1ccc2nc(SC3CC(=O)N(c4ccc(C)c(C)c4)C3=O)nc(C)c2c1 (stereo not drawn)
 : 47.3%[activator]	32.4%[activator]
COC(=O)c1ccn(Cc2ccccc2Cl)n1
 : 160.9%[activator]	-0.1%
CCc1nn2c(=O)cc(COC(=O)c3ccccc3NC(=O)c3cccs3)nc2s1
 : 3.7%	-5.1%
COc1ccc2c(c1)c(C(=O)NC(C)C(C)C)c(C)n2C1CC1 (stereo not drawn)
 : -7.8%	7.6%
CC(=O)c1cccc(NC(=O)C2=CC(c3ccc(F)cc3)=NS(=O)(=O)N2C)c1
 : ?	?

# Five records picked at random from the list so far, as already listed:
# The line under a structure holds: 2A firefly	StopGo RLuc
COc1ccccc1CC(C#N)C(=O)Nc1cc(C)cc(C)c1 (stereo not drawn)
 : ?	?
COCCCNC(=O)Cn1c(=O)n(-c2ccccc2)c(=O)c2c1c1cc(OC)ccc1n2C
 : -9.0%	-15.1%
COC(=O)c1ccn(Cc2ccccc2Cl)n1
 : 160.9%[activator]	-0.1%
Cc1ccc(C)c(NC(=O)Cn2c(=O)n(Cc3cccs3)c(=O)c3cccnc32)c1
 : -12.2%	-8.0%
CSCCC(=O)NCc1cccs1
 : 0.0%	10.3%

# Sorted by length of the SMILES (low to high): some entries from above
# The line under a structure holds: 2A firefly	StopGo RLuc
COC(=O)c1ccn(Cc2ccccc2Cl)n1
 : 160.9%[activator]	-0.1%
CCn1nnc2cc(C(=O)Nc3cccc(Cl)c3)ccc21
 : 157.3%[activator]	5.5%
COc1cc(NC(=O)CC2C(=O)OCCN2Cc2ccccc2)cc(OC)c1 (stereo not drawn)
 : -2.9%	-1.6%
CC(=O)c1cccc(NC(=O)C2=CC(c3ccc(F)cc3)=NS(=O)(=O)N2C)c1
 : ?	?
CCc1ccc(C2c3c(oc4ccc(C)cc4c3=O)C(=O)N2c2nc(C)c(C)s2)cc1 (stereo not drawn)
 : -13.4%	10.9%
CC(=O)c1cccc(-n2c(=O)c3c4c(sc3n(CC(=O)c3ccc(Cl)cc3)c2=O)CN(C(C)=O)CC4)c1
 : -17.1%	-12.9%

# Compound activity deposited in PubChem BioAssay by National Center for Advancing Translational Sciences (NCATS).

# Compounds as they come; about 0.55% have a hit in one of these screens.
